High-throughput results from PubChem.
RE007 growth inh = less growth of the S. pombe RE007 Vpr strain | 360,000 compounds, 0.21% hits | S. pombe RE007 Vpr strain, BacTiter-Glo ATP luminescence, 24 h; control for the full effect not named in the record | Potency, µM (doses to about 92.2 µM), for inactives: top-dose activity change, negative = less growth; active = well fitted falling curve with a large enough effect; inconclusive = small, poorly fitted or top-dose-only effect; inactive = no such curve, though single readings can be large or run the other way;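 note: % is set by controls: 0 for no effect and ±100 for the full control effect; nearly all actives have a fitted effect of over 50% in size; the assay follows cell death caused by Vpr and the record does not say whether a fall means rescue or toxicity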
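Fission yeast strain RE007, carrying one chromosomally integrated HIV-1 vpr copy, was seeded at OD 0.01 in PMG+AL medium with 23 nL pinned compound. After 24 h at 30 °C and 99% humidity, viability was read by BacTiter-Glo luminescence.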
StopGo reporter = lowers the luciferase signal of an FMDV 2A StopGo reporter; human cells with a luciferase reporter of 2A StopGo recoding; control for the full effect not named in the record; Potency, µM (top dose mostly 57.9 µM), for inactives: at the top dose signal change, negative = less light; 410,000 compounds, 1.2% hits; active = well fitted falling curve with a large enough effect; inconclusive = small, poorly fitted or top-dose-only effect; inactive = no such curve, though single readings can be large or run the other way; tested in HEK293T cells; note: % is set by controls: 0 for no effect and ±100 for the full control effect; nearly all actives have a fitted effect of over 45% in size; luciferase light after 4 h
Cruzain inh noDet = blocks cruzain activity in detergent-free assay | P25779 | purified cruzain, Z-FR-AMC fluorescence, no detergent | Potency, µM, inactives show max response, negative = inhibition, actives largely listed as inhibitors | 200,000 compounds, 2.3% hits;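 note: plate controls were enzyme without inhibitor for no effect and buffer without enzyme for full effect; nearly all actives have a fitted effect of over 40% in size; top concentration of the series not given in the record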
Target sequence (P25779 123-467 limits assumed): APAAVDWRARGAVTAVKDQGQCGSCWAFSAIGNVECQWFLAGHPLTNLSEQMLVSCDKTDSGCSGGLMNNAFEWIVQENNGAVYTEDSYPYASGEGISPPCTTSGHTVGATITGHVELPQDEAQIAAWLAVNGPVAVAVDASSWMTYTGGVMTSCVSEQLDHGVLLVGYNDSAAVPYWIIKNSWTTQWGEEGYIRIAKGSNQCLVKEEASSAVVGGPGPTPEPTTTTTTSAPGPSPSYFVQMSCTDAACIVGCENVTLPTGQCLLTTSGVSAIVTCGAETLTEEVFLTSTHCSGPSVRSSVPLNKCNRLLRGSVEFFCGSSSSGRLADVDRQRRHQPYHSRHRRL
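Detergent-free condition (0.00005% Triton X-100) in acetate buffer pH 5.5 with DTT. 1.5 nM enzyme and compound were pre-mixed 15 min, then 2 uM Z-FR-AMC substrate added; reaction progress from fluorescence change between first and third reads (60 s).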
NS1 function inh = inhibitors of influenza NS1 protein function | 270,000 compounds, 0.4% hits | S. cerevisiae slowed by influenza A NS1, growth recovery by OD600 | Potency, µM (highest dose often 46.1 µM), inactives show at the top dose activity, positive = more growth; active means well fitted rising curve with a large enough effect; inconclusive means small, poorly fitted or top-dose-only effect; inactive means no such curve, though single readings can be large or run the other way; note: nearly all actives have a fitted effect of over 50% in size
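In this qHTS, NS1 from influenza A is expressed in budding yeast, where it slows growth. Cells are switched from glucose to 2% galactose medium (pH 6.0, -URA), treated with compound, and growth recovery is read at OD600.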
LASV entry inh = Lassa virus entry inhibition; 300,000 compounds, 1.2% hits; Lassa virus pseudotype entry inhibition, cell reporter; control for the full effect not named in the record; Potency, µM (doses to about 37.9 µM), inactives show at the top dose activity change, negative = inhibition, most hits filed as inhibitors; active means well fitted inhibition curve with a large enough effect; inconclusive means small, poorly fitted or top-dose-only effect, or effect the other way; inactive means flat fitted curve, though single readings scatter; tested in HEK293 cells; note: % is set by controls: 0 for no effect and ±100 for the full control effect; nearly all actives have a fitted effect of over 50% in size; luciferase read-out
Marburg entry inh = Marburg virus entry inhibition; 300,000 compounds, 1.8% hits; Marburg virus pseudotyped entry inhibition, cell reporter; control for the full effect not named in the record; about a third of the inactives were read at about 46 µM; Potency, µM (titrated, usually from 37.8 µM), without a hit: at the highest dose activity change, negative = inhibition, most hits filed as inhibitors; active = well fitted inhibition curve with a large enough effect; inconclusive = small, poorly fitted or top-dose-only effect, or effect the other way; inactive = flat fitted curve, though single readings scatter; tested in HEK293 cells; about a fifth of its hits are not listed in these tables; note: % is set by controls: 0 for no effect and ±100 for the full control effect; luciferase read-out
SARS PLpro yeast = inhibitors of SARS-CoV papain-like protease in yeast; S. cerevisiae expressing SARS-CoV PLpro, growth rescue; control for the full effect not named in the record; Potency, µM (doses to about 32.9 µM), for the others: at the top dose activity, positive = growth rescue; 330,000 compounds, 0.19% hits; AID 485353; active means well fitted rising curve with a large enough effect; inconclusive means small, poorly fitted or top-dose-only effect; inactive means no such curve, though single readings can be large or run the other way; note: 0% is about no effect; nearly all actives have a fitted effect of over 55% in size; growth read by luminescence after 48 h
Cruzain Triton = inhibitors of Trypanosoma cruzi cruzain with detergent; purified cruzain, Z-FR-AMC fluorescence, 0.01% Triton; Potency, µM, for inactives: max response, negative = inhibition, usual class: inhibitors; 200,000 compounds, 0.43% hits; AID 1478;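 note: plate controls were neutral wells for no effect and buffer without enzyme for full effect; nearly all actives have a fitted effect of over 40% in size; top concentration of the series not given in the record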
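Detergent-containing arm of a paired screen for aggregation-based inhibition: 0.01% Triton X-100 present. Cruzain at 1.5 nM cleaved 2 uM Z-FR-AMC at pH 5.5 with 5 mM DTT; AMC fluorescence gain over 60 s measured activity.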
An asterisk follows results filed as active; & = joins results of further samples; [ ] = another dose, or the depositor's remark. Unless noted, calls come from the whole dose curve; as a rule, active = well fitted curve in the direction sought with a large enough effect; inconclusive = small, poorly fitted or top-dose-only effect, or another doubt; inactive = no such curve, though single readings can be large; an effect the other way counts as inactive or inconclusive. Potency is the fitted concentration of half-maximal effect.

CC(C)Nc1nc(NC(C)C)nc(N(C)C(N)=O)n1 was read as RE007 growth inh inconclusive, StopGo reporter 5%, Cruzain inh noDet 4%, NS1 function inh -2%, LASV entry inh 2%, Marburg entry inh -9%, SARS PLpro yeast 0% and Cruzain Triton 5.0%.
CCc1ccc(/C=C2\SC(=S)N(CCC(=O)NCCCN3CCOCC3)C2=O)cc1 was read as RE007 growth inh 3%, StopGo reporter 1%, NS1 function inh -2%, LASV entry inh 4%[46.1 µM], Marburg entry inh inconclusive and SARS PLpro yeast -3%.
`CCc1ccc(CNC(=O)c2ccc(CSc3nc4ccncc4n3Cc3ccc(OC)cc3)cc2)cc1` gave StopGo reporter -14%, Cruzain inh noDet -10%, Marburg entry inh inconclusive and Cruzain Triton 0.5%.
`CSc1ccccc1C(=O)NCCOc1cccc(C)c1` gave RE007 growth inh -1%, StopGo reporter inconclusive, NS1 function inh 1%, LASV entry inh inconclusive, Marburg entry inh inconclusive and SARS PLpro yeast -1%.
Screening CCCC(=O)OC1=C(C(C)=O)N(Cc2ccccc2)S(=O)(=O)c2ccccc21 returned StopGo reporter -9%, Cruzain inh noDet -8%, LASV entry inh -2%[46.1 µM], Marburg entry inh 0%[46.1 µM] and Cruzain Triton -9.0%.
Screening Cc1ccc2[nH]c(CSc3nnc(NC(=O)COc4ccccc4Cl)s3)cc(=O)c2c1 returned StopGo reporter -7%, Cruzain inh noDet -19%, LASV entry inh 8%[46.1 µM] and Cruzain Triton -1.7%.
For O=C(NCc1ccccc1Cl)c1ccc2nc[nH]c2c1 the results were RE007 growth inh 11%, StopGo reporter 28%, Cruzain inh noDet 4%, NS1 function inh -2%, LASV entry inh -7%, Marburg entry inh -10%, SARS PLpro yeast -20% and Cruzain Triton -4.1%.
O=C(NC(=S)N1CCc2ccccc21)c1ccccc1Br was read as RE007 growth inh 7%, StopGo reporter 7%, Cruzain inh noDet -5%, NS1 function inh -38%, LASV entry inh 0%, Marburg entry inh 5%, SARS PLpro yeast -38% and Cruzain Triton -5.6%.
Screening COc1ccc(C)cc1Nc1ccc(C(=O)O)cc1[N+](=O)[O-] returned RE007 growth inh -6%, StopGo reporter -7%, LASV entry inh 10%, Marburg entry inh 0%[46.1 µM] and SARS PLpro yeast -10%.
Screening COc1ccc(C2OC(=O)CC2C(=O)NC(C)C)cc1 (stereo not drawn) returned RE007 growth inh 4%, StopGo reporter inconclusive, Cruzain inh noDet -7%, NS1 function inh inconclusive, LASV entry inh -2%, Marburg entry inh inconclusive, SARS PLpro yeast 1% and Cruzain Triton -9.3%.
Screening Cc1ccc(S(=O)(=O)n2nc(OC(=O)c3c(-c4ccccc4Cl)noc3C)cc2N)cc1 returned RE007 growth inh -17%, StopGo reporter inconclusive, Cruzain inh noDet inconclusive, NS1 function inh 18%, LASV entry inh -8%, Marburg entry inh 0%&-25%, SARS PLpro yeast 5% and Cruzain Triton 2.7%.
For CCN(C(=O)COC(=O)c1ccccc1SCC(=O)NC1CCCCCCC1)C1CCS(=O)(=O)C1 (stereo not drawn) the results were StopGo reporter 9%, Cruzain inh noDet inconclusive, NS1 function inh -1%, LASV entry inh -9%, Marburg entry inh inconclusive, SARS PLpro yeast -17% and Cruzain Triton -2.4%.
COc1ccc(NC(=O)CSc2nc3sc(C)cc3c(=O)n2C)c(OC)c1 was read as RE007 growth inh 6%, StopGo reporter -19%, NS1 function inh -45%, LASV entry inh 1%, Marburg entry inh -28%[46.1 µM] and SARS PLpro yeast 0%.
Cc1ccc(CC(NC(=O)c2ccccc2)C(=O)N2CCCC2C(=O)O)cc1 (stereo not drawn) was read as RE007 growth inh 8%, StopGo reporter 2%, Cruzain inh noDet 0%, NS1 function inh 2%, LASV entry inh 5%, Marburg entry inh 0%, SARS PLpro yeast 2% and Cruzain Triton 1.8%.
Screening CCn1c(SCC(=O)NC2CCCC2)nnc1-c1c[nH]c2ccccc12 returned RE007 growth inh 9%, StopGo reporter inconclusive, Cruzain inh noDet 2%, NS1 function inh 4%, SARS PLpro yeast 2% and Cruzain Triton 1.2%.
CC(=O)c1cccc(S(=O)(=O)NC2CCCCCC2)c1 was read as RE007 growth inh 8%, StopGo reporter 65%[activator], Cruzain inh noDet -6%, NS1 function inh 4%, LASV entry inh 12%, Marburg entry inh inconclusive, SARS PLpro yeast 14% and Cruzain Triton -1.5%.
`COC(=O)Cc1[nH]nc2c1C1(C(=O)N(Cc3ccc(Cl)cc3)c3ccccc31)C(C#N)=C(N)O2` (stereo not drawn) gave RE007 growth inh -9%, StopGo reporter -28%, Cruzain inh noDet inconclusive, NS1 function inh -8%, LASV entry inh -19%, Marburg entry inh -5%, SARS PLpro yeast 3% and Cruzain Triton -7.3%.
For CCC1(C)Cc2c(sc3[nH]c(=S)n(Cc4ccccc4)c(=O)c23)CO1 (stereo not drawn) the results were RE007 growth inh 8%, StopGo reporter inconclusive, Cruzain inh noDet -9%, NS1 function inh 13%, LASV entry inh 5.6µM*, Marburg entry inh inconclusive, SARS PLpro yeast 14% and Cruzain Triton -13%.
Screening CCCCn1c(N)c(N(CC(C)C)C(=O)CSc2nnc(C)n2-c2ccc(OC)cc2)c(=O)[nH]c1=O returned RE007 growth inh -1%, StopGo reporter -10%, LASV entry inh 2%, Marburg entry inh 0% and SARS PLpro yeast 2%.
For CCOc1ccc(N2C(=O)CC(NCCc3ccncc3)C2=O)cc1 (stereo not drawn) the results were RE007 growth inh inconclusive, Cruzain inh noDet -2%, NS1 function inh -31%, LASV entry inh 13%, Marburg entry inh 0%, SARS PLpro yeast -12% and Cruzain Triton -0.2%.
For COc1ccc(CCNC(=O)Cn2c(=O)nc(-c3ccccc3)c3cc(Cl)ccc32)cc1OC the results were StopGo reporter -7%, Cruzain inh noDet 1%, LASV entry inh 2%[46.1 µM] and Cruzain Triton 0.4%.
For Cc1cc(C)c(C#N)c(SCc2nnc(-c3ccccc3)o2)n1 the results were StopGo reporter inconclusive, Cruzain inh noDet 4%, NS1 function inh -34%, LASV entry inh 1.2µM*, Marburg entry inh 1.2µM*, SARS PLpro yeast -20% and Cruzain Triton -4.8%.
`Cc1cc(/C(N)=N/OC(=O)Nc2ccc(Cl)cc2)no1` gave RE007 growth inh 6%, StopGo reporter 58%[activator], NS1 function inh 1%, LASV entry inh 12%, Marburg entry inh -1%[46.1 µM] and SARS PLpro yeast 2%.
`Cc1nnc(NC(=O)c2ccccc2C(=O)O)s1` gave RE007 growth inh 12%, StopGo reporter 14%, Cruzain inh noDet -5%, NS1 function inh -5%, LASV entry inh 7%, Marburg entry inh -2%, SARS PLpro yeast 21% and Cruzain Triton 5.1%.
`Cc1ccc(NC(=O)NCCCCc2ccccc2)cc1` gave RE007 growth inh -9%, StopGo reporter 13%, NS1 function inh 4% and SARS PLpro yeast -6%.
Screening Nc1ccc(N2C(=O)c3ccccc3C2=O)c(Cl)c1 returned RE007 growth inh -11%[18.4 µM], StopGo reporter -7%, Cruzain inh noDet -4%, NS1 function inh -10%, LASV entry inh inconclusive, Marburg entry inh inconclusive and Cruzain Triton -5.4%.
CC(C)(Oc1ccc(Cl)cc1)C(=O)N1CCN(c2ccccn2)CC1 was read as RE007 growth inh -15%, StopGo reporter -4%, Cruzain inh noDet 22%, NS1 function inh -27%, LASV entry inh inconclusive, Marburg entry inh -12%, SARS PLpro yeast inconclusive and Cruzain Triton -4.7%.
Screening S=C(Nc1ccccc1)N1CCN(c2ccc(N3CCOCC3)nn2)CC1 returned RE007 growth inh -13%, StopGo reporter -8%, LASV entry inh 2%, Marburg entry inh 9%[46.1 µM] and SARS PLpro yeast -1%.
For CCOC(=O)c1[nH]ncc1CN1CCC(Cc2ccccc2)(C(=O)OCC)CC1 the results were RE007 growth inh 7%, StopGo reporter inconclusive, NS1 function inh 5% and SARS PLpro yeast 0%.
For O=C(NC1CC1)c1cc2c(F)cccc2s1 the results were RE007 growth inh -21%, StopGo reporter 1%, NS1 function inh -9%, LASV entry inh 20%, Marburg entry inh -23%[46.1 µM] and SARS PLpro yeast -2%.
For COc1ccc(NC(=O)CSc2nc3ccccc3n2CC(=O)Nc2cccc(C)c2C)cc1 the results were StopGo reporter -20%, Cruzain inh noDet 9%, LASV entry inh -9%[46.1 µM] and Cruzain Triton -5.1%.
O=C(c1ccc(-c2ccccc2)cc1)N1CCN(C(=O)c2ccco2)CC1 was read as RE007 growth inh -2%, StopGo reporter inconclusive, Cruzain inh noDet 3%, NS1 function inh -47%, LASV entry inh 1%, Marburg entry inh -7%, SARS PLpro yeast -5% and Cruzain Triton -0.7%.
Screening c1ccc(CSCc2cn3ccsc3n2)cc1 returned RE007 growth inh -12%, StopGo reporter 8%, Cruzain inh noDet 0%, NS1 function inh -45%, LASV entry inh 2%, Marburg entry inh 19%, SARS PLpro yeast 12% and Cruzain Triton -3.0%.
COc1ccc(/C=C2\C(=N)N3N=C(CC(=O)N4CCCCC4)SC3=NC2=O)cc1 was read as RE007 growth inh -3%, StopGo reporter 13%, NS1 function inh 11%, LASV entry inh 0%[46.1 µM], Marburg entry inh 6%[46.1 µM] and SARS PLpro yeast -24%.
Screening COc1ccc(NC(=O)CS(=O)CC(=O)Nc2cc(Cl)ccc2OC)cc1 (stereo not drawn) returned RE007 growth inh 2%, StopGo reporter 0%, Cruzain inh noDet -1%, NS1 function inh -3%, LASV entry inh -5%, Marburg entry inh 0%, SARS PLpro yeast 2% and Cruzain Triton -3.6%.
Screening COc1cc(/C=C(\C#N)c2nc3ccccc3[nH]2)ccc1OCc1ccc(F)cc1 returned StopGo reporter -1%, Cruzain inh noDet inconclusive, LASV entry inh -6%[46.1 µM], Marburg entry inh inconclusive and Cruzain Triton -4.0%.
For CCCCN=Cc1sc2ccc(OCC)cc2c1O the results were RE007 growth inh -4%, StopGo reporter 47%[activator], Cruzain inh noDet -2%, NS1 function inh -6%, LASV entry inh -2%, Marburg entry inh 1%, SARS PLpro yeast -13% and Cruzain Triton 1.6%.
For C#CCOCCOCCOCCNc1nc(N2CCOCC2)nc(N2CCN(C(=O)[C@H](CCC(=O)O)n3cc(C(N)Cc4ccc(O)cc4)nn3)CC2)n1 (stereo partly drawn) the results were RE007 growth inh 13%, StopGo reporter -7%, NS1 function inh 2% and SARS PLpro yeast -1%.
